Assay outcomes from PubChem.
NOMO-1 viab = NOMO-1 AML cell viability reduction, primary screen, STK33 inhibitor project, CellTiter-Glo luminescence; NOMO-1 AML viability, 72 h; inhibition, % (concentration not given with the values); 7.5% of 37,000 active; AID 2330, 2010;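 active = most replicates above 80%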;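 note: wells of about 30 µL received 25 nL stock; 0% = median of vehicle wells and 100% = reference inhibitor level; the first replicate is given; inactives centre near 10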
* = called active by the depositor. An excerpt; count on the stated rates, not on these rows.

SMILES	NOMO-1 viab
CC(NS(=O)(=O)c1ccc(F)cc1)C(=O)Nc1cccc(C(F)(F)F)c1 (stereo unspecified)	37
FC(F)(F)COc1cc(-c2n[nH]c(=S)n2Cc2ccco2)cc(OCC(F)(F)F)n1	8
Cc1ccc(S(=O)(=O)Nc2ccc3c(c2)C(=O)N([C@@H](C)CO)C[C@@H](C)[C@H](CN(C)C(=O)Nc2ccc(C(F)(F)F)cc2)O3)cc1	29
CSC(=NC(C)(C)C)Nc1ccccc1Cl	21
COc1ccc2nc3c(cc2c1)c(=O)n(C)c(=O)n3C	-4
Cc1noc(C)c1NC(=O)N(C)C[C@@H]1Oc2c(NC(=O)c3ccncc3)cccc2C(=O)N([C@H](C)CO)C[C@H]1C	1
N#Cc1c(SC2CCCC2)nsc1SC1CCCC1	48
C[C@@H]1CN([C@H](C)CO)C(=O)Cc2cc(NC(=O)Nc3cccc4ccccc34)ccc2O[C@H]1CN(C)Cc1ccc(C(F)(F)F)cc1	105*
Cc1c(C(=O)Nc2ccccc2C(=O)NCc2ccco2)cccc1[N+](=O)[O-]	18
C[C@@H]1CN([C@@H](C)CO)C(=O)c2cccc(NC(=O)Nc3ccc4c(c3)OCO4)c2O[C@@H]1CN(C)Cc1ccc(C(=O)O)cc1	0
COC(=O)c1ccccc1NC(=O)C(C)NS(=O)(=O)c1ccc(C)cc1 (stereo unspecified)	7
O=C1OCc2cc3cccc(O[C@@H]4O[C@H](CO)[C@@H](O)[C@H](O)[C@H]4O)c3c(O)c21	7
C[C@H](CO)N1C[C@H](C)[C@H](CN(C)C(=O)Nc2cccc3ccccc23)Oc2ccc(NC(=O)CCCCCC(=O)Nc3ccccc3N)cc2CC1=O	38
COc1ccc(F)cc1S(=O)(=O)NCc1cccnc1	3
O=C(NC(=O)c1ccc(OCC(F)(F)F)nc1)NN1CCOCC1	-26
Cc1cc(-c2ccccc2)nc(SCC(=O)O)n1	-3
Cc1noc(C)c1S(=O)(=O)N(C)C[C@@H]1Oc2c(NS(C)(=O)=O)cccc2C(=O)N([C@@H](C)CO)C[C@H]1C	-36
Cc1cc(OCC(=O)Nc2cccc(C(=O)O)c2)cc(C)c1Cl	-12
C[C@H]1CN([C@@H](C)CO)C(=O)c2cc(NC(=O)CCC(F)(F)F)ccc2O[C@@H]1CN(C)S(C)(=O)=O	5
O=S(=O)(Cc1ccccc1)c1ccccc1	-2
CCn1c(SCC(=O)Nc2cccc(Cl)c2)nnc1-c1ccc(Cl)cc1Cl	52
Cc1noc(C)c1NC(=O)N(C)C[C@@H]1Oc2ccc(NC(=O)CCCCCC(=O)Nc3ccccc3N)cc2CC(=O)N([C@@H](C)CO)C[C@@H]1C	-13
C[C@@H]1CN([C@H](C)CO)C(=O)Cc2cc(NC(=O)Cn3cnnn3)ccc2O[C@H]1CN(C)Cc1ccncc1	0
CNC[C@@H]1Oc2ccc(NS(=O)(=O)c3ccc(C)cc3)cc2C(=O)N([C@@H](C)CO)C[C@H]1C	2
C[C@H](CO)N1C[C@H](C)[C@@H](CN(C)Cc2ccc(C(=O)Nc3ccccc3N)cc2)Oc2ccc(NC(=O)Cc3ccccc3)cc2C1=O	4

Nothing new here: an excerpt of the list.
SMILES	NOMO-1 viab
Cc1noc(C)c1NC(=O)N(C)C[C@@H]1Oc2ccc(NC(=O)CCCCCC(=O)Nc3ccccc3N)cc2CC(=O)N([C@@H](C)CO)C[C@@H]1C	-13
C[C@@H]1CN([C@H](C)CO)C(=O)Cc2cc(NC(=O)Cn3cnnn3)ccc2O[C@H]1CN(C)Cc1ccncc1	0

Back to the main list with the 2 entries that preceded the break.
SMILES	NOMO-1 viab
CNC[C@@H]1Oc2ccc(NS(=O)(=O)c3ccc(C)cc3)cc2C(=O)N([C@@H](C)CO)C[C@H]1C	2
C[C@H](CO)N1C[C@H](C)[C@@H](CN(C)Cc2ccc(C(=O)Nc3ccccc3N)cc2)Oc2ccc(NC(=O)Cc3ccccc3)cc2C1=O	4
CCC(=O)Nc1ccc(OCc2nc3ccccc3s2)cc1	-7
Cc1ccc(S(=O)(=O)Nc2ccc3c(c2)C(=O)N([C@H](C)CO)C[C@@H](C)[C@@H](CN(C)Cc2ccccc2)O3)cc1	16
Cc1ccc(S(=O)(=O)Nc2cccc3c2O[C@@H](CN(C)S(C)(=O)=O)[C@@H](C)CN([C@H](C)CO)C3=O)cc1	7
COc1ccc([N+](=O)[O-])cc1NC(=O)CN(c1ccc(F)c(Cl)c1)S(C)(=O)=O	30
COc1ccc(CN(C)C[C@@H]2Oc3ccc(NS(=O)(=O)c4c(C)noc4C)cc3CC(=O)N([C@H](C)CO)C[C@@H]2C)cc1	32
COc1cccc2sc(NC(=O)c3ccc(S(=O)(=O)N4CCCC(C)C4)cc3)nc12 (stereo unspecified)	59
COC(=O)c1cccc(COC(=O)c2ccc(NC(=O)c3ccccc3)cc2)c1	30
C[C@@H]1CN([C@H](C)CO)C(=O)c2cc(NS(=O)(=O)c3ccc(F)cc3)ccc2O[C@H]1CN(C)Cc1ccc(C(=O)Nc2ccccc2N)cc1	58
CCN(CC(=O)Nc1ccc(Br)cc1)S(=O)(=O)c1ccc(C)cc1	-23
C[C@H](CO)N1C[C@H](C)[C@H](CN(C)C(=O)Nc2ccc(C(F)(F)F)cc2)Oc2c(NC(=O)CCCCCC(=O)Nc3ccccc3N)cccc2C1=O	114*
CCn1cc(NC(=S)Nc2cc(Cl)ccc2OC)c(C(N)=O)n1	24
Cc1noc(C)c1S(=O)(=O)N(C)C[C@H]1Oc2c(NC(=O)C3CCCCC3)cccc2C(=O)N([C@@H](C)CO)C[C@H]1C	-11
C[C@@H]1CN([C@@H](C)CO)C(=O)Cc2cc(NC(=O)CCCCCC(=O)Nc3ccccc3N)ccc2O[C@@H]1CN(C)C(=O)Nc1ccc2c(c1)OCO2	34
Clc1ccc(-c2csc3ncnc(SCc4ccco4)c23)cc1	34
C[C@@H]1CN([C@@H](C)CO)C(=O)Cc2cc(NC(=O)Cc3ccccc3)ccc2O[C@@H]1CN(C)S(C)(=O)=O	-9
CCNC(=O)c1c(NC(=O)COc2ccc(Cl)cc2Cl)sc2c1CCCC2	45
C[C@H]1CN([C@@H](C)CO)C(=O)Cc2cc(NC(=O)c3ccncc3)ccc2O[C@@H]1CN(C)Cc1ccc(C(=O)Nc2ccccc2N)cc1	32
Cc1noc(C)c1NC(=O)Nc1ccc2c(c1)C(=O)N([C@@H](C)CO)C[C@H](C)[C@@H](CN(C)Cc1ccc3c(c1)OCO3)O2	6
CSc1nnc(-c2ccccc2)n1-c1ccccc1	19
CSc1sc(C(=O)Sc2ccccc2)c2c1S(=O)(=O)N(C)c1ccccc1-2	121*
Cc1noc(C)c1NC(=O)N(C)C[C@@H]1Oc2c(cccc2N(C)C)C(=O)N([C@@H](C)CO)C[C@H]1C	18
COc1cccc(-c2nc(N)nc(SC)c2C#N)c1	14
Cc1ccc(Cl)cc1N(CC(=O)Nc1ccc(C(F)(F)F)cc1)S(C)(=O)=O	118*
CC(NS(=O)(=O)c1ccccc1)C(=O)Nc1ccccc1Sc1ccccc1 (stereo unspecified)	22
NNC(=O)c1ccc(COc2cc(Cl)ccc2Cl)o1	32

Further entries follow.
SMILES	NOMO-1 viab
COc1ccc(N2CCN(c3nc(NCCO)nc(N4CCOCC4)n3)CC2)cc1	5
O=C(CSc1ncccn1)Nc1ccc([N+](=O)[O-])cc1	40
CC1(C)NCCC12C(=O)N(Cc1ccccc1)c1ccccc12 (stereo unspecified)	120*
Cc1ccc(S(=O)(=O)N(C)C[C@H]2Oc3ccc(NC(=O)C4CC4)cc3CC(=O)N([C@H](C)CO)C[C@H]2C)cc1	-1
C[C@H]1CN([C@@H](C)CO)C(=O)Cc2cc(NC(=O)C3CCCCC3)ccc2O[C@H]1CN(C)C	22
Cc1cc(C)c(S(=O)(=O)N(C)CC(=O)Nc2ccc(F)c(Cl)c2)c(C)c1	28
COc1ccc(/C=C/C(=O)OC2CCCCC2)cc1	95*
C[C@@H]1CN([C@H](C)CO)C(=O)Cc2cc(NC(=O)C3CCCCC3)ccc2O[C@@H]1CN(C)Cc1ccc2c(c1)OCO2	13
COc1ccc(NC(=O)Nc2ccc3c(c2)CC(=O)N([C@@H](C)CO)C[C@@H](C)[C@@H](CN(C)Cc2ccccc2)O3)cc1	3
C[C@@H]1CN([C@@H](C)CO)C(=O)c2cc(NC(=O)Cc3ccccc3)ccc2O[C@@H]1CN(C)C(=O)Nc1ccccc1	11
O=S(=O)(CCN1CCOCC1)c1ccc(OC(F)(F)F)cc1	1
Cc1noc(C)c1S(=O)(=O)N(C)C[C@@H]1Oc2ccc(NS(=O)(=O)c3ccc(F)cc3)cc2CC(=O)N([C@H](C)CO)C[C@@H]1C	21
O=C(CSc1ccc2ccccc2n1)Nc1ccnc2ccccc12	35
CCOC(=O)CC(Sc1ccccc1N)c1cc(OC)c(OC)c(OC)c1 (stereo unspecified)	-13
Cc1cc(C(=O)Nc2cccc3c2O[C@@H](CN(C)S(=O)(=O)c2cn(C)cn2)[C@H](C)CN([C@@H](C)CO)C3=O)n(C)n1	30
Cc1ccc(S(=O)(=O)Nc2ccc3c(c2)C(=O)N([C@H](C)CO)C[C@@H](C)[C@@H](CN(C)CC2CC2)O3)cc1	3
CN(CC(=O)Nc1ccccc1C#N)S(=O)(=O)c1cc(Cl)ccc1Cl	7
Cc1noc(C)c1S(=O)(=O)Nc1ccc2c(c1)C(=O)N([C@@H](C)CO)C[C@@H](C)[C@H](CN(C)C(=O)Nc1cccc3ccccc13)O2	7
Cc1noc(C)c1S(=O)(=O)Nc1ccc2c(c1)CC(=O)N([C@H](C)CO)C[C@@H](C)[C@@H](CN(C)Cc1ccc(Oc3ccccc3)cc1)O2	30
CC(=O)N1c2ccccc2NC(=O)C1CC(=O)Nc1ccccc1Cl (stereo unspecified)	31
Cc1cc(C)c2c(n1)sc1c(SCC(=O)c3ccc(Br)cc3)ncnc12	21
O=C(Nc1ccc(OCc2nc3ccccc3s2)cc1)c1cccc(I)c1	105*
Cc1noc(C)c1S(=O)(=O)N(C)C[C@H]1Oc2ccc(NS(=O)(=O)c3cccs3)cc2C(=O)N([C@H](C)CO)C[C@H]1C	-2
COc1ccc(NC(=O)Nc2ccc3c(c2)CC(=O)N([C@@H](C)CO)C[C@H](C)[C@@H](CN(C)C(=O)Nc2ccc(OC)cc2)O3)cc1	15
C[C@@H]1CN([C@H](C)CO)C(=O)Cc2cc(NC(=O)C3CC3)ccc2O[C@H]1CN(C)C	8

Shown as a markdown table: entries from further up.
| Molecule | NOMO-1 viab |
| --- | --- |
| Cc1noc(C)c1S(=O)(=O)N(C)C[C@@H]1Oc2ccc(NS(=O)(=O)c3ccc(F)cc3)cc2CC(=O)N([C@H](C)CO)C[C@@H]1C | 21 |
| O=C(CSc1ccc2ccccc2n1)Nc1ccnc2ccccc12 | 35 |
| CC1(C)NCCC12C(=O)N(Cc1ccccc1)c1ccccc12 (stereo unspecified) | 120* |
| COc1ccc(N2CCN(c3nc(NCCO)nc(N4CCOCC4)n3)CC2)cc1 | 5 |
| CC(=O)N1c2ccccc2NC(=O)C1CC(=O)Nc1ccccc1Cl (stereo unspecified) | 31 |
| Cc1noc(C)c1S(=O)(=O)N(C)C[C@H]1Oc2ccc(NS(=O)(=O)c3cccs3)cc2C(=O)N([C@H](C)CO)C[C@H]1C | -2 |

The results go on.
SMILES	NOMO-1 viab
CC1(C)C=Cc2c(c3occc3c3oc(-c4ccccc4)cc(=O)c23)O1	95*
COc1ccc(NC(=O)CSc2ncnc3c2sc2nc(N4CCOCC4)c4c(c23)CC(C)(C)OC4)cc1	99*
C[C@H](CO)N1C[C@H](C)[C@H](CN(C)C(=O)Nc2ccccc2)Oc2ccc(NS(=O)(=O)c3cn(C)cn3)cc2C1=O	17
C[C@H]1CN([C@@H](C)CO)C(=O)c2cccc(NS(=O)(=O)c3cccs3)c2O[C@@H]1CN(C)C	-2
O=c1c2c3c(sc2nc2c4ccccc4c(NCCOCCO)nn12)CCCC3	34
CS(=O)(=O)N(CC(=O)Nc1ccc(I)cc1)c1ccc2c(c1)OCCO2	12
C[C@H]1CN([C@@H](C)CO)C(=O)c2cccc(NC(=O)Nc3ccccc3)c2O[C@@H]1CN(C)S(=O)(=O)c1ccc(Cl)cc1	4
COCCNC(=S)Nc1nc(OC)cc(OC)n1	15
COc1ccc(S(=O)(=O)Nc2ccc3c(c2)C(=O)N([C@H](C)CO)C[C@@H](C)[C@H](CN(C)S(C)(=O)=O)O3)cc1	-3
COc1ccc(C(C)(C)C)cc1S(=O)(=O)NCC1CCCO1 (stereo unspecified)	0
C[C@H]1CN([C@@H](C)CO)C(=O)c2cccc(NC(=O)Nc3cccc4ccccc34)c2O[C@H]1CN(C)Cc1ccccc1	43
COC(=O)c1c(-c2c(Cl)cccc2Cl)noc1NC(=O)NCc1ccccc1	104*
C[C@@H]1CN([C@H](C)CO)C(=O)c2cccc(NS(=O)(=O)c3cn(C)cn3)c2O[C@H]1CN(C)Cc1ccc(C(=O)O)cc1	-17
C[C@H](CO)N1C[C@H](C)[C@H](CN(C)Cc2ccncc2)Oc2c(NS(=O)(=O)c3cn(C)cn3)cccc2C1=O	14
C[C@@H]1CN([C@@H](C)CO)C(=O)c2cccc(N(C)C)c2O[C@H]1CN(C)C(=O)NC1CCCCC1	1
CCOC(=O)c1c(NC(=O)CSc2nc(C)c3c(n2)CCCC3)sc2c1CCCC2	-12
C[C@@H]1CN([C@@H](C)CO)C(=O)c2cccc(NC(=O)NC3CCCCC3)c2O[C@H]1CN(C)CC1CCCCC1	102*
Cc1noc(C)c1NC(=O)Nc1ccc2c(c1)C(=O)N([C@H](C)CO)C[C@@H](C)[C@@H](CN(C)C(=O)Nc1cccc3ccccc13)O2	-7
C[C@H]1CN([C@@H](C)CO)C(=O)Cc2cc(NC(=O)c3ccncc3)ccc2O[C@H]1CN(C)C(=O)Nc1ccc(F)cc1	-3
Cn1nnnc1SCC(=O)c1ccc(O)c(O)c1	31
Cc1cccc(NC(=O)CSc2nnc(-c3ccncc3)n2-c2ccc(C)c(C)c2)c1	29
C[C@@H]1CN([C@H](C)CO)C(=O)c2cccc(NS(=O)(=O)c3cccs3)c2O[C@H]1CN(C)C(=O)Nc1ccccc1	-14
